# Source: PubChem BioAssay (several laboratories)
# Vif A3G = HIV-1 Vif–A3G interaction blockers – biochemical, TR-FRET, GST-Vif 1-94, biotin-A3G peptide, dose response retest, primary screen (AID 1117319) | TR-FRET GST-Vif / biotin-A3G peptide binding; higher % means a stronger effect; test concentration not given here; strong numbers were not always called active | inhibition, %, or IC50 in µM where a hit was titrated | 260,000 tested, 0.57% active;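 active means above the screen mean plus three standard deviations and confirmed in dose response; inconclusive means results disagree or hit not tested in dose response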;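 further: Vif residues 1-94 fused to GST binding biotinylated APOBEC3G peptide 110-148; 0% = full assay without inhibitor and 100% = GST in place of GST-Vif; retest series ran down from 100 µM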
# Calb FLC = C. albicans growth modulation with fluconazole. C. albicans CaCi-2 (fluconazole-resistant clinical isolate) + fluconazole, Alamar Blue growth, 48 h. growth inhibition, % (concentration not given with the values). 300,000 tested, 0.57% active. AID 1979;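 active means most replicates above 75%; inconclusive means exactly half above 75%; inactive means most below 75%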;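 further: all wells also contain fluconazole at 8 µg/ml as a sub-toxic cotreatment; 0% = median of DMSO wells and 100% = median of geldanamycin control wells; wells of about 8 µL received 7.5 nL stock; the first replicate is given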
# RanGTP-Impb inh = inhibitors of RanGTP-importin-beta interaction, primary screen, biochemical, FRET, CFP-Ran, YFP-importin-beta, homogeneous | cell-free CFP-Ran/YFP-importin-beta FRET ratio | inhibition, % (test concentration not listed) | 300,000 tested, 1.1% active | AID 2216;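 active means most replicates above 15%; inconclusive means exactly half above 15%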;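 further: 0% = DMSO wells and 100% = Ran loaded with GDP instead of GTP; wells of about 40 µL received 100 nL stock; the first replicate is given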
# ALR inh = inhibitors of human sulfhydryl oxidase ALR; P55789; purified ALR, DTT oxidation, H2O2 HRP-luminol luminescence; inhibition, % (test concentration not listed); 290,000 tested, 3.8% active; AID 485317;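 active means mean and each replicate at 75% or more; inconclusive means only one of the two met; inactive means neither met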;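 further: stock transfer was 7.5 nL into about 7.5 µL; 0% = neutral wells and 100% = wells with inactivated enzyme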
# Target sequence (P55789 whole entry, looked up): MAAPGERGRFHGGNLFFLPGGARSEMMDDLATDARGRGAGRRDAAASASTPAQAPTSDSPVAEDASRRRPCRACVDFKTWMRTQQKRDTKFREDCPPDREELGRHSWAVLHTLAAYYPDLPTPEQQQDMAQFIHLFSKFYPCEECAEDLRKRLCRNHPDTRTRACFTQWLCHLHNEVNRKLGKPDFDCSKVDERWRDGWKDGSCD
# Beta2AR agonist = agonists of human beta-2 adrenergic receptor inducing internalization. P07550. Am2.2-beta2AR cells, FAP receptor internalization, flow cytometry; reference of the scale not given here. response, % (test concentration not listed). 340,000 tested, 0.43% active. AID 504454;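 active means response above a set limit, near 3 SD of response in nonfluorescent compounds, cut at about 42% in these data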;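 further: stock transfer was 100 nL into about 11 µL; a reference agonist was the positive control; negative values mostly stem from fluorescent compounds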
# Target sequence (P07550 whole entry, looked up): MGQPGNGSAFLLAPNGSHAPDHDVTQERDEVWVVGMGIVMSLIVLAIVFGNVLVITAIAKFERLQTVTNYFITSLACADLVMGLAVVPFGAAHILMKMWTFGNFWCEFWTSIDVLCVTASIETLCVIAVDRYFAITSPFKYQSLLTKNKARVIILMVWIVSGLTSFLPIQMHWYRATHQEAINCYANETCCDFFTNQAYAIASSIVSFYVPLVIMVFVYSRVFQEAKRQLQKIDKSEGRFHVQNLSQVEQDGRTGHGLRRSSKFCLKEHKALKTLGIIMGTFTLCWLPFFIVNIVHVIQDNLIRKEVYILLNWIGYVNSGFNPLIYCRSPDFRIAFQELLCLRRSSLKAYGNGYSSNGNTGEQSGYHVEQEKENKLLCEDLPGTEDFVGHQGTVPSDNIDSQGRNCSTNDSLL
# LANA-H2A inh = blocks KSHV LANA binding to histone H2A/H2B | inhibition, % (concentration not given with the values) | cell-free LANA-H2A/H2B peptide, fluorescence polarization | Q9QR71 | AID 2629 | 320,000 tested, 0.6% active; in the data active means inhibition mostly above about 10%, no sharp cut-off; inactive means mostly below about 6.7%;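 further: stock transfer was 7.5 nL into about 10 µL; 0% = median of vehicle wells and 100% = median of positive control wells; one replicate is shown; the record names a cut of 25% in any replicate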
# HNF4A DNA FP = change in binding of human HNF4 alpha to DNA. P41235. HNF4a-FITC DNA binding, fluorescence polarization, 1 h. activity change, % at 10 µM. 360,000 tested, 0.3% active. AID 1224865; in the data active means activity change above about 30%, passing the limit was not always enough;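 further: controls were the assay level and a saturating level of protein; the project sought stronger binding though the title names inhibitors; some compounds called inactive have numbers as strong as hits; positive values seem to mean higher polarization but the record does not say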
# Target sequence (P41235 whole entry, looked up): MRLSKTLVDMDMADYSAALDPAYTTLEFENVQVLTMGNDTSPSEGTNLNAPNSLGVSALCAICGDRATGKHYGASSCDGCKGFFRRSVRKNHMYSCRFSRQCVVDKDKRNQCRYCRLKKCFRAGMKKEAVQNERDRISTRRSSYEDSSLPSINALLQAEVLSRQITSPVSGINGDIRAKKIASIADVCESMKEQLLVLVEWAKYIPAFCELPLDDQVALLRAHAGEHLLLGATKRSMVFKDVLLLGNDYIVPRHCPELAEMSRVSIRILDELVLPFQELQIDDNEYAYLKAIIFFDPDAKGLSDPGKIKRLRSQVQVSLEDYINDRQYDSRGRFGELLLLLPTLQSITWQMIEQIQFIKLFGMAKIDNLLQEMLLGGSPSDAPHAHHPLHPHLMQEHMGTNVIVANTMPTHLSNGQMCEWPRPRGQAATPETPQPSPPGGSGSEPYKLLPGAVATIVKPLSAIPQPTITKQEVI
# Numbers without * were called inactive; ? = inconclusive; . = not tested or not shown.
SMILES,Vif A3G,Calb FLC,RanGTP-Impb inh,ALR inh,Beta2AR agonist,LANA-H2A inh,HNF4A DNA FP
COc1ccc(/C=C(\C#N)C(=O)OCC(=O)NCc2ccccc2OC)cc1,-4%,1,0.7,.,-3,.,0.6
Cc1oc2c(C)c3oc(=O)c(CCC(=O)NCCCCCC(=O)O)c(C)c3cc2c1C,.,0,0.1,59,2,-3.0,5.7
CCOc1cc(OCC)nc(S(C)(=O)=O)n1,-2%,29,3.5,4,-2,-4.1,0.6
Cc1cc(C)c(OCC(=O)Nc2nc3ccccc3[nH]2)c(C)c1,6%,-22,0.8,-4,-20,-1.9,0.0
CCCCN(C)Cc1c(O)ccc2c(=O)c(-c3ccccc3OC)coc12,9%,-3,2.3,.,1,-4.0,3.7
C[C@@H](CN1CCC[C@H]1CN1C(N)=NC[C@@H]1Cc1ccccc1)N1C[C@@H](Cc2ccccc2)N(CCc2ccc(Cl)c(Cl)c2)C1=N,.,.,.,-6,7,3.5,9.3
COc1ccc(N2CCN(c3ncnc4c3nnn4Cc3ccccc3Cl)CC2)cc1,28%,3,1.9,0,18,6.9,1.7
CC1CC(C)CN(C(=O)Nc2ccc(Br)cc2)C1 (stereo not given),27%,-9,?,.,-11,0.4,-1.2
Cc1onc(-c2ccccc2)c1CNC(=O)Nc1ccc(C(F)(F)F)cc1,-7%,-26,-2.3,-24,19,-3.5,1.5
O=C(Cc1cc(=O)[nH]c(=O)[nH]1)N1CCN(C(=O)c2ccco2)CC1,-5%,6,-2.0,-32,-9,-0.2,1.9
CC(=O)N1c2ccc(S(=O)(=O)N3CCCC3)cc2CC1C(=O)NCc1ccc(OC(C)C)cc1 (stereo not given),.,3,2.4,-1,-9,-2.7,-0.1
Cc1cc(C)cc(NC(=S)N2CCN(c3ccc(F)cc3)CC2)c1,.,-17,6.9,0,12,-0.6,-2.8
Clc1cccc(-c2nc(-c3ccc(-c4nn[nH]n4)cc3)no2)c1,.,.,.,53,5,-1.9,3.1
O=C(COc1ccccc1)Nc1nc2c(s1)CCCC2,.,-5,-1.8,31,0,-5.8,0.6
CCOC(=O)c1cnc2c(C)c(Cl)ccc2c1NCCCN1CCOCC1,.,-6,3.4,2,6,2.7,-3.2
COc1ccc2c(c1)[N+](C)(C)C(C)(C)C=C2C,19%,-1,-1.3,-7,1,-10,1.2
CCN1C(=O)S/C(=C/c2cn(C)c3ccccc23)C1=O,11%,-24,7.5,-4,-15,-4.8,-0.8
COc1cccc(-n2ccnc2SCC(=O)N2CCCc3ccccc32)c1,.,3,2.0,31,6,0.2,-0.4
Cc1occc1C(=O)N(C)CC1CCCN(CCc2ccccc2F)C1 (stereo not given),8%,-1,4.8,-11,2,-3.8,1.1
Cc1ccc(C(=O)NN2C(=O)C3C4c5ccccc5C(c5ccccc54)[C@@H]3C2=O)cc1 (stereo not given in full),17%,-2,1.4,-18,-3,-3.0,4.5
CCOC(=O)c1cc(CC)sc1NC(=O)CSc1nc2ccccc2c(=O)n1Cc1ccco1,.,-3,-2.2,6,1,-0.4,0.3
CC1CC(C)CN(C(=O)CSc2nc(N)cc(=O)[nH]2)C1 (stereo not given),7%,-8,-1.4,2,0,-2.6,-1.7
Cn1c(CCN2CCCCC2)nc2cc(NC(=O)Nc3ccccc3)ccc21,-9%,5,-0.7,-23,-12,-1.8,-0.1
COc1cc(/C=C2/NC(=O)N(c3cccc(Cl)c3)C2=O)ccc1O,.,-3,6.9,7,16,-3.3,-2.3
COc1cc2c(=O)nc3n(c2cc1OC)C(c1ccccc1)N=C(N)N3 (stereo not given),6%,11,6.2,.,.,.,.
Cc1cc(C)c(-n2c(SCc3nc4ccccc4s3)n[nH]c2=O)c(C)c1,.,-4,3.5,-9,-1,4.6,-0.3
O=S(=O)(Nc1ccc(S(=O)(=O)N2CCCCC2)cc1)c1cccs1,3%,12,-0.7,-2,-1,-0.1,-1.4
CCOC(=O)CSC1=C(C#N)C(c2ccc(C)cc2)C(C(=O)OC)C(=O)N1 (stereo not given),3%,3,-2.2,17,30,-5.4,-2.0
COc1ccc(N2CCN(C(=O)Cc3ccc(Br)cc3)CC2)cc1,-2%,-6,5.1,57,-2,-4.7,1.8
COC(=O)c1c(C(=O)OC)c(-c2ccc(Cl)cc2)n2c1CS(=O)(=O)C2,9%,0,2.9,-4,0,2.9,3.3
CC1(c2cccc(Br)c2)NC(=O)N(CC(=O)Nc2ccc3c(c2)OCO3)C1=O (stereo not given),.,.,.,2,19,3.3,-4.2
Cc1nn(-c2ccccc2)c(C)c1NC(=O)COC(=O)c1cc(Cl)ccc1O,.,-3,1.7,-36,11,-2.1,3.3
CCOC(=O)C1CCCN(C(=O)c2ccccc2SCCOC)C1 (stereo not given),3%,?,5.0,-3,4,-1.7,-0.6
COc1ccc(CC(=O)NCC2CCCN(Cc3cc(OC)cc(OC)c3)C2)cc1 (stereo not given),.,1,?,.,-3,-7.6,-2.0
Cc1ccnc(NC(=O)CSc2cc(=O)n(C)c3ccccc23)c1,-11%,-22,-0.6,-2,-13,-0.3,2.1
CCC(O)C1CCN(C(=O)c2cc(COc3ccc(F)cc3F)on2)CC1 (stereo not given),2%,-1,2.4,8,-3,.,-4.6
Cn1ccnc1Sc1nc2ccccc2nc1NS(=O)(=O)c1ccccc1,9%,12,?,6,9,1.3,-9.9
CCCCc1ccc(NC(=S)N2CCN(C)CC2)cc1,.,-43,-3.3,-27,-10,4.7,0.6
COc1ccc([N+](=O)[O-])cc1NC(=O)C(C)c1ccccc1 (stereo not given),-3%,-6,3.6,-2,0,-3.7,0.3
CCN(CC)S(=O)(=O)c1ccc(C(=O)C(C#N)c2ccccn2)cc1 (stereo not given),-13%,-8,5.4,-4,-12,-9.8,3.1
Cn1c(=NC(=O)C2CC2)sc2cc(F)cc(F)c21,28%,-3,0.8,-1,2,0.9,1.2
CCCCNc1nc2ccccc2n1CC(=O)Nc1ccc2c(c1)OCCO2,?,-11,-1.8,-1,.,-4.7,.
Cc1cc(C)nc(N2CCC(C(=O)Nc3nnc(C)s3)CC2)n1,3%,-15,0.8,-16,2,-0.8,-0.3
COc1ccc(C)cc1NC(=O)CCNC(=O)Cn1cnc2ccccc2c1=O,.,-6,1.5,-3,5,6.8,3.3
c1ccc(-c2n[nH]c(-c3ccccn3)n2)cc1,-3%,-13,8.1,.,-10,5.8,-2.6
COCCNC(=O)c1sc2nc(-c3ccccc3)cn2c1C,7%,-14,?,15,2,7.1,4.1
COc1ccc(-n2c(C)nc(=O)c(-c3ccccc3)c2C)cc1,9%,.,.,3,-10,3.8,0.4
COc1ccc(CCN(C)C(=S)Nc2ccc(SC(F)F)cc2)cc1OC,.,3,3.4,0,11,-0.7,1.1
COCCN(CC(=O)NCC1CCCO1)C(=O)CCC(=O)Nc1cc(C)ccn1 (stereo not given),-8%,-3,1.3,-11,3,2.8,-2.3
CC(=O)N1CCN(c2ccccc2NC(=O)Cc2ccc(Cl)cc2)CC1,-3%,29,5.0,-1,-3,-304,3.7
N#CC1=C(N)S[C@H](C(=O)C23CC4CC(CC(C4)C2)C3)[C@H]1c1ccncc1,14%,1,-1.4,2,-1,-5.4,-0.5
Cc1cccc(NC(=S)N/N=C(\c2ccccc2)C(C)C)c1,.,102*,2.1,-28,0,-18,-1.6
COc1cc(OC)cc(C(=O)N2CCN(C(=O)Cc3ccccc3)CC2)c1,10%,17,?,7,-2,0.1,5.6
COC(=O)CSCc1nc2ccccc2[nH]c1=O,.,2,3.7,99*,12,-1.9,24
Cn1ncnc1SCc1cn2cccnc2n1,.,-2,-0.2,-16,0,-3.4,-0.7
C[C@H](CO)N1C[C@H](C)[C@@H](CN(C)C(=O)Nc2ccccc2)Oc2c(NC(=O)C3CCCCC3)cccc2C1=O,.,.,.,3,-3,1.2,2.6
CCOC(=O)C1=C(C)N(c2ccc(C)c(C)c2)C(=O)/C1=C\c1ccco1,?,2,-2.7,2,-6,-9.8,3.3
COc1ccc2c(c1)c(C(=O)O)c(C)n2-c1ccc(Cl)cc1,3%,15,1.6,-18,-11,-2.8,-1.0
Nc1c(Cl)nc(-c2ccccc2)nc1Cl,2%,-25,2.1,12,2,0.8,-3.0
CC(=O)N1CCN(C(=O)c2cc(C)oc2C)CC1,.,.,.,-3,-2,3.8,2.6

# Remaining list, next part:
SMILES,Vif A3G,Calb FLC,RanGTP-Impb inh,ALR inh,Beta2AR agonist,LANA-H2A inh,HNF4A DNA FP
CC(=O)c1c(C)[nH]c(C(=O)Nc2cc(C)ccc2C)c1C,-3%,-8,-1.0,.,0,0.5,-0.2
C=CCn1c(CNC(=O)c2ccco2)nnc1SCC(=O)N1c2ccccc2Sc2ccccc21,-2%,16,?,-14,-13,-2.6,-4.7
CCNc1nc(NC(C)C)nc(N(C#N)C(C)C(=O)N(CC)CC)n1 (stereo not given),-8%,-12,1.6,-2,-3,-1.1,-4.6
CC1CCCN(c2ccc(C(=O)OCn3nnc4ccccc4c3=O)cc2[N+](=O)[O-])C1 (stereo not given),24%,1,-2.9,-5,8,-3.0,-2.0
CCOc1ccc(C2=CSC3=NCCN23)cc1[N+](=O)[O-],-3%,6,-0.8,43,-22,3.5,1.1
CCOC(=O)c1cc(S(=O)(=O)Nc2ccc(F)cc2F)cn1C,.,-5,2.7,-4,1,-1.5,2.3
COc1ccc(C2NC3=C(CCCC3)C(C#N)(C#N)C2(C#N)C#N)cc1 (stereo not given),?,23,5.3,4,.,-2.5,.
O=C(O)CCc1nnc(SCC(=O)Nc2ccc(Br)cc2)[nH]c1=O,9%,-6,2.1,27,-3,-4.3,4.3
COc1ccc(Nc2nnc(SCC(=O)/C=C3/N(C)c4ccccc4C3(C)C)s2)cc1,.,20,1.2,-1,10,-3.3,4.1
CCOc1ccc(OCc2ccc(C(=O)NN=Cc3ccc[nH]3)cc2)cc1,.,.,.,-10,14,-1.1,5.7
Cn1c(CNC(=O)c2ccccc2F)nnc1SCc1nc2ccccc2c(=O)[nH]1,16%,4,-3.0,-11,.,-1.1,.
O=C(NCCc1ccc(F)cc1)N1CCOCC1,16%,-3,-1.9,-1,0,-5.8,2.3
COc1cccc2cc(-c3nc(-c4cccs4)cs3)c(=O)oc12,12%,-12,-28,-4,0,-3.2,40*
Cc1cc(N2CCN(C)CC2)nc2ccc(NC(=S)NCc3cccs3)cc12,-9%,12,-3.2,.,18,-1.5,1.2
COc1ccc2nc(N(CCN(C)C)C(=O)c3ccc4ccccc4c3)sc2c1,.,21,10,-4,6,-1.1,1.5
Cc1cc(C)nc(SCC(=O)c2cc3ccccc3oc2=O)n1,12%,-3,-0.7,93*,-4,4.6,2.1
CCC(=O)Nc1ccc2c(c1)nc1n2CCN(CCOC)C1,-1%,-7,-1.7,-6,-9,3.9,0.9
COc1cc2c(=O)n(Cc3ccccc3)c(=O)n(CC(=O)C(C)(C)C)c2cc1OC,0%,2,-1.5,.,.,2.4,.
CSc1nnc(N(CCC#N)CCC#N)s1,-1%,-4,3.8,-4,4,-1.3,-2.7

# Among those listed so far, these contain bromine.
SMILES,Vif A3G,Calb FLC,RanGTP-Impb inh,ALR inh,Beta2AR agonist,LANA-H2A inh,HNF4A DNA FP
CC1CC(C)CN(C(=O)Nc2ccc(Br)cc2)C1 (stereo not given),27%,-9,?,.,-11,0.4,-1.2
COc1ccc(N2CCN(C(=O)Cc3ccc(Br)cc3)CC2)cc1,-2%,-6,5.1,57,-2,-4.7,1.8
CC1(c2cccc(Br)c2)NC(=O)N(CC(=O)Nc2ccc3c(c2)OCO3)C1=O (stereo not given),.,.,.,2,19,3.3,-4.2
O=C(O)CCc1nnc(SCC(=O)Nc2ccc(Br)cc2)[nH]c1=O,9%,-6,2.1,27,-3,-4.3,4.3
